# Assay outcomes deposited in PubChem by National Center for Advancing Translational Sciences (NCATS).
# GLA inh pH 4.5 – blocks human alpha-galactosidase A at pH 4.5. P06280. purified enzyme, 4-MU-alpha-Gal fluorescence, pH 4.5. activity change, negative = inhibition, % at 105 µM. 230,000 tested, under 10 active; inconclusive = small, poorly fitted or top-dose-only inhibition, or a rising curve; inactive = flat fitted curve, though single readings scatter; no compound was filed as active;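 further: 0% = full activity with enzyme and -100% = basal without enzyme; dose as in the result columns while the protocol names 77 µM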
# miR-21 FLuc – raises the signal of a miR-21 reporter | Potency, µM (doses to about 38.3 µM), for the others: at the highest dose reporter change, positive = more light | HeLa miR-21 FLuc reporter, luciferase, 48 h | 340,000 tested, under 10 active; active = well fitted rising curve with a large enough effect; inconclusive = small, poorly fitted or top-dose-only effect; inactive = no such curve, though single readings can be large or run the other way;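 further: % of control where 0% means no effect; miR-21 action dims this reporter so a rising signal means less miR-21 action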
#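 HeLa cells endogenously expressing miR-21, stably carrying CMV-driven firefly luciferase with a downstream miR-21 binding site, 2000 cells/well. Titrations up to approximately 40 uM, 48 hours; luciferase luminescence read.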
# Rango release inh – inhibition of RanGTP-driven Rango-importin beta dissociation | O95149+P62826 | Biochemical FRET Rango-importin beta, RanGTP-induced dissociation | Potency, µM (series often up to 46.1 µM), without a hit: at the highest dose activity change, negative = inhibition | hit rate 0.071% among 340,000 | AID 540253; active means falling FRET ratio curve, often poorly fitted, with flat reads before Ran was added; inconclusive means other falling curves, or compound fluorescence or quenching; inactive means flat or rising ratio curve;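 further: potency means the concentration at half of the fitted maximal effect; % of control where 0% means no effect; nearly all actives have a fitted effect of over 45% in size; -100% = wells without RanGTP and RCC1; the record marks most hits as doubtful in a second field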
#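 Rango FRET biosensor (snurportin-1 IBB flanked by N-terminal EYFP and C-terminal CFP10) at 0.1 uM, with 0.25 uM importin beta in PBS, 1mM DTT, 0.02% Tween-20, 0.1% BSA. 0.6 uM Ran, 2mM GTP and 0.2 uM RCC1 were then added for 45 min at room temperature. Inhibition read as loss of FRET rise.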
# Rango complex inh – prevents formation of the Rango-importin beta complex. Q14974. Rango CFP/YFP FRET sensor + importin beta, 45 min. Potency, µM (highest dose often 92.2 µM), inactives show at the top dose inhibition of complex formation. hit rate 0.031% among 340,000. AID 540263; active = rising FRET ratio curve, often small or poorly fitted; inconclusive = mostly compound fluorescence or quenching in the first reads; inactive = flat curves in all reads;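 further: potency means the concentration at half of the fitted maximal effect; 0% = DMSO wells and 100% = buffer wells lacking importin beta; nearly all actives have a fitted effect of over 15% in size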
# Target sequence (Q14974 whole entry, looked up): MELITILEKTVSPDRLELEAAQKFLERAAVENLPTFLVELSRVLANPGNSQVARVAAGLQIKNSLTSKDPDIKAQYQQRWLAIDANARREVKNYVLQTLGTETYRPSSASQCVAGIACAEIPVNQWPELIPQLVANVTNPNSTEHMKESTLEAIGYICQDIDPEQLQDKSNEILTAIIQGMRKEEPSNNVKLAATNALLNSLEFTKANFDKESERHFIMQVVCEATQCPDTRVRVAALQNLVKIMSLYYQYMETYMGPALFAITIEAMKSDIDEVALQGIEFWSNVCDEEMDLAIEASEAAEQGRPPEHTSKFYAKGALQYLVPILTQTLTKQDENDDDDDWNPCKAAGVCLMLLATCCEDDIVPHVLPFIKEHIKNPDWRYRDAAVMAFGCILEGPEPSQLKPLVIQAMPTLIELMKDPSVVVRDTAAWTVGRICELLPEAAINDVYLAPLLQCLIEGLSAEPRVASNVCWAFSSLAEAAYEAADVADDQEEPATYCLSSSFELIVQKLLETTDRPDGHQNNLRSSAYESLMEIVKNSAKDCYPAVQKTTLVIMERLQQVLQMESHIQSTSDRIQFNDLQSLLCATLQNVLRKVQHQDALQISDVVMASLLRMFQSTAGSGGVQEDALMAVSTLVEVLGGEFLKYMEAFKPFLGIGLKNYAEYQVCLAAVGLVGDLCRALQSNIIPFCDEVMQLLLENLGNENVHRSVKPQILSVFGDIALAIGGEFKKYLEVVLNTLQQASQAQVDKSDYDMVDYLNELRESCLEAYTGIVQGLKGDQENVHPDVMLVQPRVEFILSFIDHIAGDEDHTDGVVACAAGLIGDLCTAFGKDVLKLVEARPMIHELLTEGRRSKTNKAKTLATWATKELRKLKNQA
#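 FRET biosensor Rango (snurportin 1 IBB between N-terminal EYFP and C-terminal Cerulean), 50 nM in PBS/1 mM DTT/0.02% Tween-20/0.1% BSA, preincubated 5 min RT with compound; 0.125 microM importin beta added, 45 min RT, CFP/YFP FRET ratio read.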
# Numbers without * were called inactive; ? = inconclusive; · = not tested or not shown. These rows are one share of the data; the hit share may differ from the screen's.
entry	compound	GLA inh pH 4.5	miR-21 FLuc	Rango release inh	Rango complex inh
1	COc1ccccc1C1CCCN1Cc1nc(-c2ccc(C)s2)oc1C (stereo not given)	-3.5	21.9%	-1.0%	2.4%
2	Cc1ccc2c(Cl)c(C(=O)Nc3nn[nH]n3)sc2c1	3.7	-1.7%	-5.2%	0.1%
3	Cc1ccc([C@@H]2C[C@H]3CN(Cc4cccc(Cl)c4)C(=O)[C@]34CCCN24)o1	-7.5	1.2%	-4.6%	2.7%
4	Cc1ccc(N2CC(C(=O)N3CCOCC3)CC2=O)cc1C (stereo not given)	·	-0.7%	0.6%	2.0%
5	COc1ccc(CCn2nnc(-c3ccc(NC(C)=O)c(Cl)c3)n2)cc1	1.9	8.0%	-6.9%	0.4%
6	O=c1ccc(=O)n(CCc2ccccn2)[nH]1	·	·	1.7%	-1.9%
7	Cn1c(SSc2ccc(-c3cccnc3)n2C)ccc1-c1cccnc1	·	·	25.3%	0.2%
8	Oc1c(Br)cc(Br)c(/C=N/n2c(-c3ccccc3)n[nH]c2=S)c1Br	·	-4.1%	15.6%	-2.0%
9	O=C(O)c1ccc(Cn2cc(C(F)(F)F)ccc2=O)cc1	-2.9	3.0%	5.0%	-0.8%
10	Cn1c(N)c(C(=O)CSc2nnc(NC3CCCCC3)s2)c(=O)n(C)c1=O	·	·	-2.5%	-1.9%
11	COc1ccc(CCNC(=O)Cn2nc(C(=O)O)c3ccccc3c2=O)cc1OC	7.9	0.0%	-0.9%	-1.2%
12	COc1ccccc1C(=O)NCCn1cc(SCC(=O)NCC2CCCO2)c2ccccc21 (stereo not given)	·	10.8%	-12.8%	6.6%
13	Cc1ccc(S(=O)(=O)N2CCN(S(=O)(=O)N3CCCCC3)CC2)c(C)c1	-5.3	0.2%	5.5%	-4.9%
14	O=C(NCc1ccc2c(c1)OCO2)c1ccc2c(c1)C(=O)N(Cc1cccnc1)C2=O	1.3	-11.1%	-4.7%	-1.0%
15	OC1COC(OCC2OC(OCc3ccccc3)C(O)C(O)C2O)C(O)C1O (stereo not given)	5.1	-0.8%	-1.1%	-2.8%
16	C/C=C/C(=O)Nc1ccccc1Br	5.7	-2.4%	4.1%	-0.5%
17	O=C1OC(Nc2ccc3c(c2)OCO3)c2ccccc21 (stereo not given)	-3.7	?	-7.9%	-4.0%
18	CCN(CC(=O)NCc1cccs1)C(=O)c1ccc(S(=O)(=O)Nc2ccccc2C)cc1	·	·	8.6%	-0.1%
19	Cc1nc(/C(N)=N/OC(=O)c2cccc(Cl)c2)c(C(F)(F)F)o1	0.0	-1.6%	-15.9%	-1.7%
20	Cc1ccc2[nH]c3c(=O)n(CCCN4CCOCC4)cnc3c2c1	-2.6	-8.4%	-7.9%	-1.5%
21	Cc1ccc(S(=O)(=O)N(Cc2ccccc2)c2ccccc2C(=O)N2CCCCC2)cc1	·	21.3%	2.0%	-1.4%
22	CCOc1ccc(N2C=Nc3ccc(OCC)cc3C2)cc1	·	-7.8%	-12.2%	0.7%
23	Cc1nc(C(=O)Nc2cccc(Cl)c2Cl)nn1-c1cc(OC(C)C)c(Cl)cc1Cl	-3.0	-2.7%	?	0.6%
24	CC(C)CCOc1ccc(-c2c(=O)n(OCc3ccc([N+](=O)[O-])cc3)c3ccccc3[n+]2[O-])cc1	1.5	-2.7%	2.6%	-1.4%
25	CCOC(=O)N1CCN(CC(=O)Nc2ccc(F)c(F)c2F)CC1	3.4	2.8%	13.9%	1.9%
26	O=C(CN1C(=O)/C(=C/c2cccc(Br)c2)SC1=S)NC1=NCCS1	0.5	3.0%	13.4%	-2.5%
27	Cc1ccc(C2(C)NC(=O)N(CC(=O)NNC(=O)c3cc(C)oc3C)C2=O)cc1 (stereo not given)	·	·	18.1%	2.5%
28	COc1ccc(CCNC(=O)c2ccccc2NC(=O)c2ccco2)cc1OC	3.9	2.2%	-9.7%	-2.7%
29	COCCN1C(=O)C(=O)/C(=C(/O)c2ccc(S(=O)(=O)N3CCCCC3)cc2)C1c1ccc(OC)c(OC)c1 (stereo not given)	·	-2.1%	-1.2%	4.2%
30	COc1ccc(C(C)(C)C)cc1NC(=O)Cn1cnnn1	1.7	-1.3%	-2.0%	0.0%
31	CN(C)CCn1nnnc1SCC1=C(C(=O)O)N2C(=O)[C@@H](NC(=O)Cc3csc(N)n3)[C@H]2SC1	·	·	-15.9%	?
32	O=c1c2c3c(sc2n(CCN2CCCC2)c(=O)n1Cc1ccccc1)CCCCC3	-1.6	-2.8%	3.3%	-0.9%
33	CCOC(=O)CSc1nc2c(c(=O)n1-c1ccc(OCC)cc1)SCC2	2.4	-5.6%	11.5%	-0.8%
34	O=C(CN1CCC(n2nnc3ccccc32)CC1)Nc1ccc2c(c1)CCC2	-8.2	-14.2%	12.3%	-0.6%
35	CCc1ccc2c(c1)cc(CN(C(=S)Nc1ccccc1C)C1CC1)c1nnnn12	8.0	-7.3%	-10.9%	0.5%
36	Cc1sc2ccccc2c1CNC[C@H]1O[C@@H](n2cnc(C(N)=O)n2)[C@H](O)[C@@H]1O	·	·	-1.7%	-4.8%
37	Cc1ccc(OCCNS(=O)(=O)c2ccc(Cl)cc2)cc1	·	·	33.0%	2.5%
38	Cc1cc(NC(=O)Nc2ccccc2[N+](=O)[O-])no1	-17.4	-25.5%	3.3%	7.0%
39	O=C(O)C(c1ccccc1)N1C(=O)/C(=C\c2ccc(-c3cccc(Cl)c3)o2)SC1=S (stereo not given)	·	-0.9%	?	?
40	CC(C)CC1NC(=O)N(CC(=O)Nc2ccccc2-c2ccccc2)C1=O (stereo not given)	6.1	-9.3%	9.3%	-0.3%
41	COc1c(C)cc(C(=O)C2CCCN(Cc3c(C)n(C)n(-c4ccccc4)c3=O)C2)cc1C (stereo not given)	7.4	-2.1%	18.4%	-0.4%
42	CC1CC1C(=O)Nc1nc2ccc(Cl)cc2s1 (stereo not given)	·	·	14.6%	1.7%
43	O=C(CCc1nnc2ccc(N3CCCC3)nn12)Nc1cc(F)ccc1F	·	-3.5%	7.6%	0.3%
44	CCN(C(=O)CSc1nnc(-c2ccc(Cl)cc2)n1C)C1CCS(=O)(=O)C1 (stereo not given)	0.1	-2.7%	20.2%	0.5%
45	Cc1ccc(-n2c(O)c(C=Nc3ccc(S(=O)(=O)Nc4ncccn4)cc3)c3ccccc3c2=O)cc1C	-11.3	-3.5%	?	?
46	CC(C)=N/N=C(/c1ccc([N+](=O)[O-])cc1)C12CN3CN(CN(C3)C1)C2	0.8	-2.5%	0.5%	-2.0%
47	COc1ccccc1C(=O)NC(=O)Nc1c(C)cc(C)cc1C	·	7.6%	-1.7%	-0.1%
48	CC(C)N(C(=O)CSc1nc(COc2ccccc2)nc2ccccc12)C(C)C	-11.9	-0.7%	-14.8%	?
49	COc1ccc(OC)c(S(=O)(=O)n2cccn2)c1	-6.3	-0.4%	5.5%	-6.4%
50	O=C(CNc1cccc2ccccc12)N/N=C/C(Br)=C/c1ccccc1	4.5	19.4%	6.0%	-1.6%

# (cont.)
entry	compound	GLA inh pH 4.5	miR-21 FLuc	Rango release inh	Rango complex inh
51	N#Cc1nc(-c2ccc(OCc3ccc(Cl)cc3)cc2)oc1NCCCn1ccnc1	2.4	-12.5%	-5.2%	4.8%
52	O=C1C=CN(Cc2ccccc2)CC1	3.7	2.3%	14.9%	2.1%
53	CCOC(=O)c1c(NC(=O)CSc2ncn[nH]2)sc(C)c1C	5.6	18.7%	-8.5%	-3.9%
54	CCOc1ccc(S(=O)(=O)N2CCN(C(=O)C3CSC4(C)CCC(=O)N34)CC2)cc1 (stereo not given)	·	·	-0.6%	-4.5%
55	CCCN(CCC)S(=O)(=O)c1ccc(C(=O)N2CC3CCC(CC3)C2)cc1	-4.9	0.0%	-6.5%	0.9%
56	CSc1nc2sc3c(c2c(=O)[nH]1)CC(C)(C)OC3	·	-9.3%	0.1%	-2.1%
57	Cc1ccc(-c2oc3ccccc3c(=O)c2O)cc1	-1.5	-19.7%	?	?
58	Cc1ccc2c(c1Br)/C(=N/N1C(=O)c3ccccc3C1=O)C(=O)N2	6.9	-7.9%	-3.7%	-4.4%
59	Cc1cc(NC(=O)CCCC(=O)NCc2ccccc2)no1	3.2	0.5%	-2.4%	5.9%
60	C=CCS(=O)(=O)N1CCCC(C(=O)c2cccc(Cl)c2)C1 (stereo not given)	-2.5	-1.4%	10.6%	-0.2%

# Three entries already listed, ordered by molecular weight, falling.
entry	compound	GLA inh pH 4.5	miR-21 FLuc	Rango release inh	Rango complex inh
53	CCOC(=O)c1c(NC(=O)CSc2ncn[nH]2)sc(C)c1C	5.6	18.7%	-8.5%	-3.9%
59	Cc1cc(NC(=O)CCCC(=O)NCc2ccccc2)no1	3.2	0.5%	-2.4%	5.9%
57	Cc1ccc(-c2oc3ccccc3c(=O)c2O)cc1	-1.5	-19.7%	?	?

# Carrying on.
entry	compound	GLA inh pH 4.5	miR-21 FLuc	Rango release inh	Rango complex inh
61	C=CCN(C(=O)CCC(=O)Nc1cc(C)on1)C(C(=O)NC1CCCC1)c1ccc(C)cc1 (stereo not given)	·	11.0%	-10.5%	0.6%
62	O=C(Nc1nccs1)c1nc[nH]c1C(=O)N1CCN(c2ccccc2)CC1	·	·	-4.0%	-0.4%
63	Cn1c(=O)cc(C(=O)N/N=C/c2ccc(F)cc2)[nH]c1=O	2.1	-1.8%	0.3%	0.6%
64	Cc1cc(N2CCOCC2)c2c(N)c(Br)cc(C)c2n1	-8.4	13.0%	-0.8%	1.0%
65	O=C(CSc1nnc(-c2ccco2)o1)NCC(=O)c1ccccc1	-3.3	-2.5%	2.6%	0.8%
66	COC(=O)c1ccc(NC(=O)COc2cccc3c2OC(C)(C)C3)cc1	·	·	41.5%	0.0%
67	CCC(=O)N1CCc2cc(S(=O)(=O)NCCc3ccc(S(N)(=O)=O)cc3)ccc21	·	0.4%	15.0%	2.4%
68	O=C(Cc1ccccc1[N+](=O)[O-])N1CCN(c2ccccc2F)CC1	-4.1	-19.7%	-12.1%	5.1%
69	CCOC(=O)CC1(C)NC(=O)c2c(C)sc(C(=O)OCC)c2N1 (stereo not given)	-1.9	-10.4%	1.9%	-1.8%
70	CCc1ccc(S(=O)(=O)NCc2cn3cccc(C)c3n2)s1	4.8	5.4%	-17.0%	-4.4%
71	Cc1cccc(OCc2cc(-c3ccccc3)no2)c1C	·	-60.9%	-1.1%	0.6%
72	CCOC(=O)C1=C(c2ccccc2)OC(N)=C(C#N)C1c1cccnc1 (stereo not given)	8.8	-0.5%	-10.4%	6.9%
73	O=[N+]([O-])c1ccc(Oc2ccc(S(=O)(=O)N3CCCCC3)cc2)cc1	-3.0	-6.0%	10.7%	-1.9%
74	CSCCC(NC(=O)c1ccc(Cl)cc1Cl)C(=O)NCc1ccncc1 (stereo not given)	·	·	?	-4.8%
75	O=C(CN(C(=O)CCC(=O)Nc1nccs1)c1ccc2c(c1)OCO2)NCc1ccc(F)cc1	·	1.0%	-3.7%	-1.2%
76	Cc1ccc(S(=O)(=O)Nc2cc3c4c(c2)CC(=O)N4CCC3)cc1	·	·	6.5%	-0.2%
77	Cc1sc(NC(=O)COc2cccc(-n3cnnn3)c2)c(C#N)c1C	6.4	-5.6%	17.9%	3.3%
78	COc1ccc(NC(=O)CCCN2C(=O)CCC2=O)cc1Cl	2.5	-7.3%	-5.4%	0.1%
79	O=C(c1ccc(F)cc1)N1CCCC(c2ccccc2)C1 (stereo not given)	-22.9	0.2%	-8.5%	-0.5%
80	COc1ccc(OC)c(N(C(=O)c2snc(C(N)=O)c2N)C(C(=O)NCc2ccccc2)c2ccc(O)cc2)c1 (stereo not given)	·	-2.0%	4.9%	0.6%
81	CC(C)Sc1ccc(C(=O)Nc2ccc(F)cc2F)cn1	5.7	-44.4%	9.9%	-0.7%
82	COCC(C)NC(=O)c1oc2c(c1C)C1(CCC2)SCCS1 (stereo not given)	0.1	-15.0%	8.0%	0.0%
83	O=C1c2ccccc2S(=O)(=O)c2cc(C(=O)N3CCN(c4ncccn4)CC3)ccc21	·	·	19.6%	2.2%
84	COC(=O)c1cc(S(=O)(=O)C(C)C)c(S(C)=O)s1 (stereo not given)	-6.7	1.9%	25.2%	-0.7%
